Screens from PubChem BioAssay.
Cruzain Triton: inhibitors of Trypanosoma cruzi cruzain with detergent. purified cruzain, Z-FR-AMC fluorescence, 0.01% Triton. Potency, µM, inactives show max response, negative = inhibition, hits mostly inhibitors. hit rate 0.43% among 200,000. AID 1478; active = well fitted curve in the direction sought with a large enough effect; inconclusive = small, poorly fitted or top-dose-only effect, or another doubt; inactive = no such curve, though single readings can be large; an effect the other way counts as inactive or inconclusive;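 also: plate controls were neutral wells for no effect and buffer without enzyme for full effect; nearly all actives have a fitted effect of over 40% in size; top concentration of the series not given in the record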
Target sequence (P25779 123-467 limits assumed): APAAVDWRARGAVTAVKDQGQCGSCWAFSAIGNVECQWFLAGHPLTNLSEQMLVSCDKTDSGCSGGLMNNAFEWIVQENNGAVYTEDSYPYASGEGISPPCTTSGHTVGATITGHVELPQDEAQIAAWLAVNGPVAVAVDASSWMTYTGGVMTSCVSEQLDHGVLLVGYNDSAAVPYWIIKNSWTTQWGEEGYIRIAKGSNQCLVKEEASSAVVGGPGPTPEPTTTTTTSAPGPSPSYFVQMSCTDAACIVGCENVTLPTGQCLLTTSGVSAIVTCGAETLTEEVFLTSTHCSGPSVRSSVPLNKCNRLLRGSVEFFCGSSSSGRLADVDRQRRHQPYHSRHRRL
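Cruzain (1.5 nM) preincubated 15 min at RT with compound in 100 mM sodium acetate pH 5.5, 5 mM DTT, 0.01% Triton X-100. Reaction started with 2 uM Z-FR-AMC; AMC fluorescence (ex 360/em 450 nm) change over 60 s gave rate.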
Cruzain inh noDet: blocks cruzain activity in detergent-free assay. Potency, µM, for the others: max response, negative = inhibition, usual class: inhibitors. purified cruzain, Z-FR-AMC fluorescence, no detergent. hit rate 2.3% among 200,000; active = well fitted curve in the direction sought with a large enough effect; inconclusive = small, poorly fitted or top-dose-only effect, or another doubt; inactive = no such curve, though single readings can be large; an effect the other way counts as inactive or inconclusive;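 also: plate controls were enzyme without inhibitor for no effect and buffer without enzyme for full effect; nearly all actives have a fitted effect of over 40% in size; top concentration of the series not given in the record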
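Detergent-free condition (0.00005% Triton X-100) in acetate buffer pH 5.5 with DTT. 1.5 nM enzyme and compound were pre-mixed 15 min, then 2 uM Z-FR-AMC substrate added; reaction progress from fluorescence change between first and third reads (60 s).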
LASV entry inh: inhibitors of Lassa virus binding or cell entry; Lassa virus pseudotype entry inhibition, cell reporter; control for the full effect not named in the record; Potency, µM (highest dose often 37.9 µM), without a hit: top-dose activity change, negative = inhibition, usual class: inhibitors; hit rate 1.2% among 300,000; AID 540256; active means well fitted inhibition curve with a large enough effect; inconclusive means small, poorly fitted or top-dose-only effect, or effect the other way; inactive means flat fitted curve, though single readings scatter; tested in HEK293 cells; also: % is scaled to controls: 0 for no effect and ±100 for the full control effect; nearly all actives have a fitted effect of over 50% in size; luciferase read-out
StopGo reporter: lowers the luciferase signal of an FMDV 2A StopGo reporter | human cells with a luciferase reporter of 2A StopGo recoding; control for the full effect not named in the record | Potency, µM (top dose mostly 57.9 µM), for the others: at the top dose signal change, negative = less light | hit rate 1.2% among 410,000 | AID 1159524; active = well fitted falling curve with a large enough effect; inconclusive = small, poorly fitted or top-dose-only effect; inactive = no such curve, though single readings can be large or run the other way; tested in HEK293T cells; also: % is scaled to controls: 0 for no effect and ±100 for the full control effect; nearly all actives have a fitted effect of over 45% in size; luciferase light after 4 h
MARV entry inh: inhibitors of Marburg virus binding or cell entry. Marburg virus pseudotyped entry inhibition, cell reporter; control for the full effect not named in the record; about a third of the inactives were read at about 46 µM. Potency, µM (titrated, usually from 37.8 µM), without a hit: at the highest dose activity change, negative = inhibition, most hits filed as inhibitors. hit rate 1.8% among 300,000. AID 540276; active = well fitted inhibition curve with a large enough effect; inconclusive = small, poorly fitted or top-dose-only effect, or effect the other way; inactive = flat fitted curve, though single readings scatter; tested in HEK293 cells; about a fifth of its hits are not listed in these tables; also: % is scaled to controls: 0 for no effect and ±100 for the full control effect; luciferase read-out
RE007 growth inh: less growth of the S. pombe RE007 Vpr strain; S. pombe RE007 Vpr strain, BacTiter-Glo ATP luminescence, 24 h; control for the full effect not named in the record; hit rate 0.21% among 360,000; Potency, µM (top dose mostly 92.2 µM), inactives show top-dose activity change, negative = less growth; active = well fitted falling curve with a large enough effect; inconclusive = small, poorly fitted or top-dose-only effect; inactive = no such curve, though single readings can be large or run the other way;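 also: % is scaled to controls: 0 for no effect and ±100 for the full control effect; nearly all actives have a fitted effect of over 50% in size; the assay follows cell death caused by Vpr and the record does not say whether a fall means rescue or toxicity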
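Fission yeast RE007 carrying one integrated HIV-1 vpr copy, seeded at OD 0.01 in PMG+AL medium with 23 nL pinned compound. Grown 24 h at 30 degrees; viability read by BacTiter-Glo luminescence after 5 min.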
SARS PLP yeast: inhibitors of SARS-CoV papain-like protease in yeast. S. cerevisiae expressing SARS-CoV PLpro, growth rescue; control for the full effect not named in the record. Potency, µM (highest dose often 32.9 µM), for the others: at the top dose activity, positive = growth rescue. hit rate 0.19% among 330,000. AID 485353; also: 0% is about no effect; nearly all actives have a fitted effect of over 55% in size; growth read by luminescence after 48 h
NS1 inh: inhibitors of influenza NS1 protein function. S. cerevisiae slowed by influenza A NS1, growth recovery by OD600. Potency, µM (doses to about 46.1 µM), for inactives: top-dose activity, positive = more growth. hit rate 0.4% among 270,000. AID 2326; also: actives are rising curves; nearly all actives have a fitted effect of over 50% in size
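A cell-based growth assay was used: compounds that relieve NS1-induced slow growth of budding yeast raise OD600. Assay medium was yeast nitrogen base with ammonium sulphate and -URA supplement, pH 6.0, with 2% galactose.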
The depositor's hits bear a star; ? = inconclusive; . = not tested or not shown; & = joins results of further samples; [ ] = dose if it differs, or a comment. Unless noted, calls follow the shape of the dose curve; as a rule, active means well fitted rising curve with a large enough effect; inconclusive means small, poorly fitted or top-dose-only effect; inactive means no such curve, though single readings can be large or run the other way. Potency is read from the fitted curve at half-maximal effect.

Each structure is followed by: Cruzain Triton, Cruzain inh noDet, LASV entry inh, StopGo reporter, MARV entry inh, RE007 growth inh, SARS PLP yeast, NS1 inh
1) CCN(CC(=O)Nc1c(F)cccc1F)C(=O)c1cc(S(=O)(=O)N(CC)CC)ccc1N1CCCCC1
    ., ., ?, 31%[activator], -11%[46.1 µM], -11%, 9%, -26%
2) CCN1CCN(Cc2nc3cc(NC(=O)c4ccccc4[N+](=O)[O-])ccc3n2CC)CC1
    ?, ?, 0%[46.1 µM], 1%, -14%[46.1 µM], ., ., .
3) CCOc1cc2[nH]c(=S)n(CCC(=O)N3CCc4ccccc4C3)c(=O)c2cc1OCC
    5.0%, 4%, -10%, -8%, 6%, -3%[3.69 µM], 1%, 2%
4) Cc1cccc(-c2nc(C#N)c(N3CCCCC3)o2)c1
    ., ., ., 48%[activator], ., -7%, 1%, -3%
5) CCn1c(SCC(=O)OC)nc2cc(S(=O)(=O)N3CCOCC3)ccc21
    ., ., 3%, 1%, -1%, 0%, ., .
6) O=C(NCCCN1CCOCC1)c1cc(-c2cccs2)on1
    -3.5%, 3%, 13%, 78%[activator], 5%, 7%, 11%, -7%
7) COc1cccc(CN(C)C(=O)c2ccc(S(=O)(=O)Nc3ccccc3F)cc2)c1OC
    ., ., 0%, -10%, 30%, -6%, 2%, .
8) CCC(Sc1nc2nccnc2c(=O)n1Cc1ccc(Cl)cc1)C(=O)NC1CCCCC1 (stereo not given)
    -0.6%, 8%, 2%[46.1 µM], 14%, ., ., ., .
9) Cc1ccc2nc(NC(=O)C3CCN(S(=O)(=O)c4cccnc4)CC3)sc2c1
    -7.1%, 10%, ., ?, ., -2%, 3%, 10%
10) Cc1ccc(Cn2ccc(NC(=O)c3cc(-c4ccco4)on3)n2)cc1
    -9.4%, 4%, 26%[14.3 µM], -8%, -27%, -2%, 9%, -2%
11) CCc1ccc(NC(=O)N2CCN(c3ccccc3)CC2)cc1
    ., ., 14%[46.1 µM], 10%, 14%[46.1 µM], -14%, -3%, -13%
12) COc1ccc(NC(=O)c2csc(Cc3ccc(Cl)cc3)n2)cc1
    ., ., ., -5%, ., -1%, 0%, 0%
13) CCN(CC(=O)Nc1c(F)cccc1F)C(=O)CSc1ccc(F)cc1
    ., ., 7%, -9%, 5%[46.1 µM], 2%, -6%, .
14) C/C(=N\Nc1ccc(Cl)c(C(=O)O)c1)c1ccc[nH]1
    ., ., 11%[46.1 µM], 10%, -4%[46.1 µM], 4%, -1%, 3%
15) O=c1c(-c2cnn(-c3ccccc3)c2)coc2cc(O)ccc12
    ., ., ?, -8%, ?, -1%, -5%, -49%
16) COc1ccc(CNCCCO)cc1OC
    3.1%, 13%, 16%, 0%, 7%, -7%, 14%, 21%
17) CC1=NN(C(=O)c2ccccc2Cl)C(O)(c2cccnc2)C1 (stereo not given)
    ., ., -7%[46.1 µM], -8%, 14%[46.1 µM], -2%, 0%, 3%
18) Nc1nc(CSc2nc3ccccc3[nH]2)nc(N2CCOCC2)n1
    3.5%, -7%, 2%, -15%, 1%, 20%, 6%, 4%
19) CCOc1ccc(C(=O)NNC2CC(=O)N(CCc3ccccc3)C2=O)cc1OC (stereo not given)
    2.4%, 3%, -19%, -18%, 24%, -12%, -1%, 2%
20) CCn1c(C)csc1=NC(=O)c1ccccc1O
    -5.0%, -13%, ?, ., ?, ?, -13%, -69%
21) CC(=O)Nc1ccc(NC(=O)c2cc3sccc3n2Cc2ccc(Cl)cc2)cc1
    -1.1%, ?, ?, -10%, 4%[46.1 µM], ., ., .
22) CCOP(=O)(Cc1ccc(C#N)o1)OCC
    ., ., 11%, 2%, -1%[46.1 µM], -6%, 0%, 3%
23) CC1CCCN(CC(O)COC(c2ccccc2)c2ccccc2)C1 (stereo not given)
    ., ., ?, 1%, 4µM*, -8%, 0%, .
24) CSc1nc(NCc2ccccc2)c2c3c(sc2n1)CN(C)CC3
    7.1%, -21%, 30%, 13%, 18%, -16%, -8%, -16%
25) O=C1c2cccc3cc(Br)cc(c23)C(=O)N1Nc1ccccc1
    -1.8%, -6%, ?, -4%, -12%[46.1 µM], 18%, 4%, 8%
26) Cc1ccc(C(C)(C)C)cc1S(=O)(=O)N1CC(=O)Nc2ccccc21
    ., ., ?, -5%, 10µM*, 7%, 0%, -8%
27) CSCCC(NC(=O)c1ccco1)C(=O)OCC(=O)N(Cc1ccccc1)C(C)(C)C (stereo not given)
    ., ., 8%, -5%, 21%, -4%, -3%, .
28) CC1CCN(C(=O)C(C)Cl)CC1 (stereo not given)
    ., ., 22%, -10%, -6%, -2%, 2%, .
29) C#CC(C)(CC)NC(=O)c1cc(OC)c(OC)c(OC)c1 (stereo not given)
    2.6%, 7%, -8%, 4%, -2%, 15%, 12%, 7%
30) COc1ccccc1C(=O)Nc1nc(-c2ccc(S(=O)(=O)N3CCOCC3)cc2)cs1
    0.2%, 21%, 3.7µM*, 3.2µM*, 7.3µM*, -12%, -2%, ?
31) CCCCOC(=O)Cn1c(=N)n(CCC)c2ccccc21
    7.6%, -3%, 0%, -20%, 8%, 7%, ?, -6%
32) Cc1cccc(NS(=O)(=O)c2cccs2)n1
    2.9%, 8%, 0%, ., -10%, 1%, 0%, 8%
33) Cc1ccc(C)c(C(=O)COC(=O)c2cc([N+](=O)[O-])ccc2NCCO)c1
    -13%, 27%, -23%, ?, ?, 10%, -20%, 2%
34) COCCOc1cc(Nc2nnc(C(F)(F)F)s2)c(Cl)cc1Cl
    -0.9%, -2%, 11%, ?, ?, 6%, 8%, -61%
35) O=C(COC(=O)c1n[nH]c2ccccc12)NC(=O)NCc1ccco1
    -2.6%, -1%, -22%, -11%, 10%, 1%, 2%, -3%
36) COC(=O)C1(Cc2cc(-c3cccnc3)no2)CCN(C(=O)OC(C)(C)C)CC1
    ., ., ., -24%, ., 2%, -12%, -55%
37) CC(O)CNc1nc2c(c(=O)n(Cc3ccc(Cl)c(Cl)c3)c(=O)n2C)n1C (stereo not given)
    ., ., ., 11%, ., 12%, 1%, -7%
38) COc1cccc(C2C(C(=O)c3cc4ccccc4o3)=C(O)C(=O)N2CCN(C)C)c1OC (stereo not given)
    ., ., -7%, -3%, 2%&13%, 7%, ., .
39) CCOC(=O)N1CCC(NC(=O)c2ccc3c(c2)N(Cc2cccc(C)c2)C(=O)c2ccccc2S3(=O)=O)CC1
    1.2%, ?, ?, -14%, ?, ., ., .
40) Cc1ccc(-n2nnnc2SCC(N)=O)c(C)c1
    9.7%, 6%, 5%, 4%, 17%, 11%, 1%, 1%
41) CC(=O)c1cccc(N2C(=NC(=O)C(C)C)SC3CS(=O)(=O)CC32)c1 (stereo not given)
    -2.7%, 1%, 9%, 18%, 0%, 16%, 3%, -7%
42) CC1CCCN(S(=O)(=O)c2ccc(C(=O)Nc3nnc(-c4ccccn4)o3)cc2)C1 (stereo not given)
    ., ., ., -11%, ., 5%, 4%, 5%
43) O=C(c1ccc(Cl)cc1)N1CCc2ccccc21
    ., ., ., 34%[activator], ., -3%, 1%, -41%
44) O=C(CN1CCN(c2ccccc2)CC1)Nc1ccc(F)cc1
    ., ., -9%, -10%, 29%, -12%, 0%, -4%
45) CCOC(=O)N1CCN(C(=O)c2cccc(OC)c2OC)CC1
    4.0%, -8%, -18%, 2%, ?, -1%, 0%, 3%
46) CC1(C)Oc2ccc(C(=O)N3CCCCC3)cc2N(CC(=O)NCc2ccccc2)C1=O
    6.7%, 6%, -9%, -15%, -8%[46.1 µM], -7%, -4%, 3%
47) COc1ccc2nc(NC(=O)c3ccccc3O)sc2c1
    ., ., ., -32%, ., -15%, -4%, -38%
48) CCC(C)[C@H](NC(=O)N1CCCCCC1)C(=O)O (stereo not given in full)
    ., ., ., -16%, ., 12%, 0%, 2%
49) COc1cc([N+](=O)[O-])ccc1NC(=O)COC(=O)c1c[nH]c(=O)[nH]c1=O
    ., ., 6%, 6%, ?, -13%, -5%, .
50) O=C(Cn1cc(C(F)(F)F)ccc1=O)Nc1cc(S(=O)(=O)N2CCOCC2)ccc1Cl
    -1.7%, -9%, 8%, -2%, -1%, 3%, 11%, 8%

Of the compounds above, these have a Cl atom:
Each structure is followed by: Cruzain Triton, Cruzain inh noDet, LASV entry inh, StopGo reporter, MARV entry inh, RE007 growth inh, SARS PLP yeast, NS1 inh
8) CCC(Sc1nc2nccnc2c(=O)n1Cc1ccc(Cl)cc1)C(=O)NC1CCCCC1 (stereo not given)
    -0.6%, 8%, 2%[46.1 µM], 14%, ., ., ., .
12) COc1ccc(NC(=O)c2csc(Cc3ccc(Cl)cc3)n2)cc1
    ., ., ., -5%, ., -1%, 0%, 0%
14) C/C(=N\Nc1ccc(Cl)c(C(=O)O)c1)c1ccc[nH]1
    ., ., 11%[46.1 µM], 10%, -4%[46.1 µM], 4%, -1%, 3%
17) CC1=NN(C(=O)c2ccccc2Cl)C(O)(c2cccnc2)C1 (stereo not given)
    ., ., -7%[46.1 µM], -8%, 14%[46.1 µM], -2%, 0%, 3%
21) CC(=O)Nc1ccc(NC(=O)c2cc3sccc3n2Cc2ccc(Cl)cc2)cc1
    -1.1%, ?, ?, -10%, 4%[46.1 µM], ., ., .
28) CC1CCN(C(=O)C(C)Cl)CC1 (stereo not given)
    ., ., 22%, -10%, -6%, -2%, 2%, .
34) COCCOc1cc(Nc2nnc(C(F)(F)F)s2)c(Cl)cc1Cl
    -0.9%, -2%, 11%, ?, ?, 6%, 8%, -61%
37) CC(O)CNc1nc2c(c(=O)n(Cc3ccc(Cl)c(Cl)c3)c(=O)n2C)n1C (stereo not given)
    ., ., ., 11%, ., 12%, 1%, -7%
43) O=C(c1ccc(Cl)cc1)N1CCc2ccccc21
    ., ., ., 34%[activator], ., -3%, 1%, -41%
50) O=C(Cn1cc(C(F)(F)F)ccc1=O)Nc1cc(S(=O)(=O)N2CCOCC2)ccc1Cl
    -1.7%, -9%, 8%, -2%, -1%, 3%, 11%, 8%
